# rRNA inh HTS – inhibitors of bacterial rRNA selective over humanized ribosomes. actives 1.6% (n = 350,000). E. coli WT GFP vs humanized-ribosome RFP mutants, fluorescence, 24 h; active compounds read low; DMSO median 0, no signal -100. AID 720706. GFP signal change (wild-type ribosome), % (test concentration not listed);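 active means significant combined selectivity score with lowered wild-type GFP, culture density cut under 30%, mutant RFP and density less affected; inactive means any of these conditions unmet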; further: one replicate is shown; some compounds called inactive have numbers as strong as hits
# FGF22 binding – FGF22 (human) thermal shift binding. recombinant FGF22 thermal shift, SYPRO orange fluorescence; percent of sucrose octasulfate shift, DMSO zero. calls only at 9.99 µM. actives 1.5% (n = 340,000). AID 651658;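 active means melting point raised past a set limit in the mean and every replicate; three in four hits are not shown here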
# Target sequence (Q9HCT0 whole entry, looked up): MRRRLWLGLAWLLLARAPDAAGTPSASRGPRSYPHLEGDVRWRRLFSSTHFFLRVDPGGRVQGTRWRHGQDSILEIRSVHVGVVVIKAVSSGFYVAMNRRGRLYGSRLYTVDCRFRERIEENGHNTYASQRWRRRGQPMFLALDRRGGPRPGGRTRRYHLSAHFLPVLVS
# rRNA inh HTS OD600 – also measured in rRNA inh HTS; calls as there; OD600 change, %; measured here: OD600 growth;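 optical density of the mix in the first replicate; 0 = DMSO median and -100 = no signal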
# rRNA inh HTS RFP – further read-out of rRNA inh HTS, marked with its call; RFP signal change, %; measured here: RFP humanized mutant strains;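 first replicate; 0 = DMSO median and -100 = no signal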
# Starred values were filed as active, the others as inactive; i = inactive. Not all compounds are listed; count on the stated rates, not on these rows.
# Letters: A = rRNA inh HTS; B = rRNA inh HTS OD600; C = rRNA inh HTS RFP; D = FGF22 binding
CCCNC(=O)C[C@H]1CC[C@H]2[C@@H](COC[C@@H](O)CN2C(=O)Nc2ccccc2OC)O1
  A: 4 | B: 17 | C: -0.9 | D: i
O=C(Cc1ccccc1)N1CC[C@@H]2[C@H](CO)Nc3ccc(-c4cccc(F)c4)cc3[C@@H]21
  A: -55 | B: -74 | C: -1.7 | D: i
CO[C@H](CN(C)S(=O)(=O)c1ccc(C)cc1)[C@@H](C)CN(C(=O)Nc1ccccc1F)[C@@H](C)CO
  A: 0 | B: 0 | C: 0.5 | D: i
C[C@@H]1CCCCO[C@H](CN(C)C(=O)Nc2ccc(F)cc2)[C@@H](C)CN([C@H](C)CO)C(=O)c2cc(NC(=O)c3ccncc3)ccc2O1
  A: -2 | B: 4 | C: 0.6 | D: i
C[C@H](CO)N1C[C@H](C)[C@@H](CN(C)C(=O)C2CCCCC2)Oc2cc(C3=CCCC3)ccc2S1(=O)=O
  A: -7 | B: -16 | C: 4.5 | D: i
CC(=O)N(C)C[C@H]1Oc2cc(Br)ccc2S(=O)(=O)N([C@@H](C)CO)C[C@@H]1C
  A: 0 | B: 9 | C: -3.5 | D: i
C[C@@H]1CN([C@H](C)CO)C(=O)c2cc(-c3cccnc3)cnc2O[C@H]1CN(C)C(=O)C1CCOCC1
  A: 2 | B: 14 | C: 1.2 | D: i
CN[C@H]1C[C@@H](c2ccccc2Br)N(C(C)=O)C[C@H]1CO
  A: 23 | B: 17 | C: 0.0 | D: i
CC(C)NC(=O)N[C@H]1CC[C@@H](CCNS(=O)(=O)c2ccc(F)cc2)O[C@H]1CO
  A: -2 | B: -2 | C: -1.3 | D: i
O=C(Nc1ccc(Cl)cc1)N[C@H]1CC[C@H](CCn2cc(Cc3ccccc3)nn2)O[C@@H]1CO
  A: -1 | B: -23 | C: 8.8 | D: i
C[C@@H]1CCCCO[C@H](CN(C)C(=O)C2CCCCC2)[C@H](C)CN([C@H](C)CO)C(=O)c2cc(NS(=O)(=O)c3cccs3)ccc2O1
  A: -2 | B: -21 | C: 3.6 | D: i
COc1ccc(S(=O)(=O)Nc2ccc3c(c2)C(=O)N([C@H](C)CO)C[C@@H](C)[C@@H](CN(C)C(=O)Nc2c(C)noc2C)O3)cc1
  A: -1 | B: 2 | C: -1.0 | D: i
C[C@H](O)C#Cc1ccc([C@H]2[C@@H](CO)N3CCCCN(S(=O)(=O)c4ccccc4)C[C@H]23)cc1
  A: 4 | B: 4 | C: -2.3 | D: i
O=C(C[C@@H]1C=C[C@@H](NS(=O)(=O)c2ccc(F)cc2)[C@@H](CO)O1)N1CCc2ccccc2C1
  A: -6 | B: -7 | C: 0.8 | D: i
C[C@H](CO)N1C[C@H](C)[C@H](CN(C)Cc2ccc(C(F)(F)F)cc2)OCCCC[C@H](C)Oc2ccc(NS(=O)(=O)c3ccc(F)cc3)cc2C1=O
  A: -4 | B: -15 | C: 5.4 | D: i
CO[C@H]1CC[C@@H]2CCN(C)C(=O)C[C@@H](c3ccccc3)CN(C)C(=O)c3cc(C#N)ccc3OC[C@@H]1O2
  A: -1 | B: -2 | C: -2.0 | D: i
C=CCN1[C@@H](C)[C@H](c2ccccc2)Oc2cccc(N3CCCC(C)C3)c2S1(=O)=O (stereo partly drawn)
  A: -8 | B: 0 | C: -4.9 | D: i
Cc1noc(C)c1NC(=O)Nc1ccc2c(c1)C(=O)N([C@@H](C)CO)C[C@H](C)[C@H](CN(C)C(=O)NC1CCCCC1)OCCCC[C@@H](C)O2
  A: 0 | B: 2 | C: -0.8 | D: i
Cc1ccc(S(=O)(=O)Nc2ccc3c(c2)CC(=O)N([C@H](C)CO)C[C@H](C)[C@H](CN(C)S(=O)(=O)c2cccs2)O3)cc1
  A: 2 | B: -5 | C: 2.1 | D: i
COc1ccc(S(=O)(=O)Nc2ccc3c(c2)[C@@H]2C[C@H](CC(=O)NCC4CC4)O[C@@H](CO)[C@@H]2O3)cc1
  A: -6 | B: -15 | C: -0.3 | D: i
C[C@@H]1CN([C@@H](C)CO)C(=O)Cc2cc(NC(=O)Nc3cccc4ccccc34)ccc2O[C@H]1CN(C)S(C)(=O)=O
  A: -1 | B: -3 | C: 4.6 | D: i
CNC[C@H]1OCCCC[C@@H](C)Oc2ccc(NS(=O)(=O)c3ccc(Cl)cc3)cc2C(=O)N([C@@H](C)CO)C[C@H]1C
  A: 4 | B: 6 | C: -0.1 | D: i
Cc1cc(-c2cc(NC(=O)Cc3c(C)[nH]c4ccccc34)ccc2N(C)c2cccnc2)ccc1F
  A: -11 | B: -13 | C: 6.3 | D: i
O=C(Cc1ccccn1)N1CC2(C1)[C@H](c1ccccc1)[C@@H](CO)N2C(=O)c1ccncc1
  A: 8 | B: 12 | C: 1.0 | D: i
O=C(NC1CCC1)[C@@H]1[C@@H](CO)[C@@H]2Cn3c(cccc3=O)[C@@H]2N1CCc1ccccc1
  A: -2 | B: -3 | C: -3.8 | D: i
COC(=O)C1=C(C)N(C)C(=NCc2ccc(C(F)(F)F)cc2)NC1c1ccccc1C(F)(F)F (stereo not drawn)
  A: -40 | B: -75 | C: -13 | D: i
C[C@H]1CN([C@@H](C)CO)C(=O)c2cccc(NC(=O)Nc3ccccc3)c2O[C@H]1CN(C)S(=O)(=O)c1cn(C)cn1
  A: 6 | B: 5 | C: 2.0 | D: i
CCC(=O)N1CCC2(CC1)CN(C(=O)Nc1ccc(F)cc1)[C@@H](CO)c1c2c2ccc(OC)cc2n1C
  A: -2 | B: -7 | C: 1.4 | D: i
O=C(Nc1cccc(Cl)c1)N[C@@H]1CC[C@@H](CCn2cc(Cc3ccccc3)nn2)O[C@@H]1CO
  A: -2 | B: 2 | C: 1.0 | D: i
CCC(=O)N(C)C[C@@H]1Oc2ncc(-c3ccccc3F)cc2C(=O)N([C@@H](C)CO)C[C@@H]1C
  A: -1 | B: 5 | C: -1.2 | D: i
O=C(C[C@@H]1CC[C@@H]2[C@H](COC[C@H](O)CN2S(=O)(=O)c2cccc(F)c2)O1)NCCCN1CCOCC1
  A: -4 | B: 5 | C: -1.2 | D: i
C[C@H](CO)N1C[C@H](C)[C@@H](CN(C)C(=O)Cc2ccccn2)Oc2ncc(C#CC3CC3)cc2C1=O
  A: 2 | B: 20 | C: -1.0 | D: i
C[C@H](CO)N1C[C@H](C)[C@H](CN(C)S(=O)(=O)c2ccc(F)cc2)Oc2cc(Br)ccc2S1(=O)=O
  A: -4 | B: -18 | C: -4.4 | D: i
O=C1CCCn2cc(nn2)COC[C@H](Cc2ccccc2)N1
  A: 4 | B: 4 | C: 1.3 | D: i
CN(C)CC(=O)N1CC2(C1)[C@H](c1ccccc1)[C@H](CO)N2Cc1ccccc1F
  A: 1 | B: 1 | C: 1.1 | D: i
CCN(C[C@@H]1[C@@H](c2ccc(-c3cccnc3)cc2)[C@@H](CO)N1C(C)=O)C(C)=O
  A: 1 | B: -1 | C: -3.3 | D: i
C[C@@H]1CN([C@@H](C)CO)C(=O)c2cc(C#Cc3cccnc3)cnc2O[C@@H]1CN(C)S(C)(=O)=O
  A: 2 | B: 1 | C: -2.5 | D: i
O=C(C[C@@H]1C=C[C@@H](NC(=O)CN2CCOCC2)[C@H](CO)O1)NC1CCC1
  A: -1 | B: 2 | C: -4.7 | D: i
C[C@H]1CN([C@@H](C)CO)C(=O)Cc2cc(NC(=O)c3ccncc3)ccc2O[C@@H]1CN(C)Cc1ccc(C(=O)Nc2ccccc2N)cc1
  A: -4 | B: -1 | C: -3.9 | D: i
C[C@H]1CN([C@@H](C)CO)C(=O)Cc2cc(NC(=O)Cc3cn(C)c4ccccc34)ccc2O[C@H]1CN(C)S(=O)(=O)c1ccc(F)cc1
  A: -2 | B: -3 | C: 1.1 | D: i
C[C@H]1CN([C@@H](C)CO)C(=O)c2cccc(NC(=O)Nc3ccc4c(c3)OCO4)c2O[C@H]1CN(C)S(=O)(=O)c1cccs1
  A: -3 | B: 12 | C: -0.3 | D: i
COc1ccc(NC(=O)N(C)C[C@@H]2Oc3c(NC(=O)Nc4ccc5c(c4)OCO5)cccc3C(=O)N([C@@H](C)CO)C[C@@H]2C)cc1
  A: -3 | B: -4 | C: 2.0 | D: i
COc1ccc(NC(=O)Nc2ccc3c(c2)CC(=O)N([C@H](C)CO)C[C@H](C)[C@@H](CN(C)S(=O)(=O)c2c(C)noc2C)O3)cc1
  A: -2 | B: -9 | C: -2.2 | D: i
C[C@H](CO)N1C[C@H](C)[C@H](CN(C)C(=O)Nc2cccc3ccccc23)OCCCC[C@H](C)Oc2ccc(NC(=O)Nc3ccc(C(F)(F)F)cc3)cc2C1=O
  A: -5 | B: -7 | C: -3.3 | D: i
O=S1(=O)c2cc(Cl)ccc2N2CC[C@H](C2)N1Cc1ccc(Cl)c(Cl)c1
  A: 12 | B: 8 | C: -1.1 | D: i
C[C@H]1CCCCO[C@H](CN(C)Cc2ccccc2)[C@@H](C)CN([C@@H](C)CO)C(=O)c2cc(NC(=O)c3ccncc3)ccc2O1
  A: 2 | B: 6 | C: -0.6 | D: i
CCC(=O)N1CC2(C1)[C@H](c1ccccc1)[C@@H](CO)N2CC1CCOCC1
  A: 2 | B: 0 | C: -3.5 | D: i
O=C(C[C@@H]1CC[C@@H]2[C@H](COC[C@@H](O)CN2S(=O)(=O)c2ccc(Cl)cc2)O1)N[C@@H]1CCN(Cc2ccccc2)C1
  A: -2 | B: 0 | C: -5.2 | D: i
O=C(C1CCC1)N1CC[C@@H]2[C@H](CO)Nc3ccc(C#Cc4cccc(F)c4)cc3[C@@H]21
  A: -4 | B: -7 | C: 17 | D: i
CO[C@H]1CN(C)C(=O)c2ccc(NC(=O)C3CC3)cc2OC[C@@H](C)N(CC2CC2)C[C@H]1C
  A: -1 | B: -4 | C: 0.6 | D: i
Cc1noc(C)c1S(=O)(=O)N(C)C[C@H]1Oc2ccc(NS(=O)(=O)c3cn(C)cn3)cc2CC(=O)N([C@H](C)CO)C[C@H]1C
  A: 2 | B: 4 | C: -2.2 | D: i
C[C@@H]1CN([C@H](C)CO)C(=O)c2cc(NC(=O)C3CCCCC3)ccc2O[C@H]1CN(C)S(C)(=O)=O
  A: 2 | B: 3 | C: 0.4 | D: i
COc1cccc(CN(C)C[C@H]2OCc3cn(nn3)CCCC(=O)N([C@@H](C)CO)C[C@@H]2C)c1
  A: 1 | B: 4 | C: 0.3 | D: i
CCCC#Cc1cnc2c(c1)C(=O)N([C@H](C)CO)C[C@@H](C)[C@@H](CN(C)Cc1ccccc1)O2
  A: 2 | B: -1 | C: 1.4 | D: i
C[C@@H]1CCCCO[C@@H](CN(C)Cc2ccc(C(F)(F)F)cc2)[C@H](C)CN([C@H](C)CO)C(=O)c2cc(NS(=O)(=O)c3cn(C)cn3)ccc2O1
  A: 1 | B: -3 | C: -1.9 | D: i
Cc1ccc(S(=O)(=O)Nc2cccc3c2O[C@@H](CN(C)S(C)(=O)=O)[C@@H](C)CN([C@H](C)CO)C3=O)cc1
  A: -2 | B: 0 | C: -2.1 | D: i
C/C=C/c1ccc([C@@H]2[C@H](CO)N(S(C)(=O)=O)C23CN(C(=O)CC)C3)cc1
  A: -2 | B: -1 | C: -1.6 | D: i
COc1cccc(-c2ccc([C@H]3[C@H](CO)N(C(C)=O)C34CN(C(C)=O)C4)cc2)c1
  A: 0 | B: 9 | C: -1.9 | D: i
CN(C)C(=O)C[C@H]1C[C@@H]2c3cc(NC(=O)NC4CCCCC4)ccc3O[C@@H]2[C@H](CO)O1
  A: 1 | B: 2 | C: -2.1 | D: i
CCCC(O)C#Cc1cnc2c(c1)C(=O)N([C@H](C)CO)C[C@H](C)[C@H](CN(C)Cc1ccccc1)O2 (stereo partly drawn)
  A: 6 | B: 11 | C: 2.7 | D: i

# Fetched by structure from the entries so far, 3 records:
# Letters: A = rRNA inh HTS; B = rRNA inh HTS OD600; C = rRNA inh HTS RFP; D = FGF22 binding
CN(C)C(=O)C[C@H]1C[C@@H]2c3cc(NC(=O)NC4CCCCC4)ccc3O[C@@H]2[C@H](CO)O1
  A: 1 | B: 2 | C: -2.1 | D: i
Cc1ccc(S(=O)(=O)Nc2cccc3c2O[C@@H](CN(C)S(C)(=O)=O)[C@@H](C)CN([C@H](C)CO)C3=O)cc1
  A: -2 | B: 0 | C: -2.1 | D: i
CO[C@H]1CC[C@@H]2CCN(C)C(=O)C[C@@H](c3ccccc3)CN(C)C(=O)c3cc(C#N)ccc3OC[C@@H]1O2
  A: -1 | B: -2 | C: -2.0 | D: i

# (cont.)
# Letters: A = rRNA inh HTS; B = rRNA inh HTS OD600; C = rRNA inh HTS RFP; D = FGF22 binding
COC(=O)C[C@@H]1CC[C@H](NC(=O)c2ccccc2)[C@H](CO)O1
  A: 3 | B: 7 | C: -3.0 | D: i
C[C@@H]1CCCCO[C@H](CN(C)Cc2ccccc2)[C@@H](C)CN([C@H](C)CO)C(=O)c2cc(NS(C)(=O)=O)ccc2O1
  A: 4 | B: 8 | C: -1.1 | D: i
Cc1ccc(S(=O)(=O)Nc2ccc3c(c2)CC(=O)N([C@H](C)CO)C[C@@H](C)[C@@H](CN(C)C(=O)NC(C)C)O3)cc1
  A: 1 | B: 2 | C: -1.0 | D: i
CNC(=O)C[C@H]1CC[C@@H]2[C@H](COc3ccc(NC(=O)C4CCCCC4)cc3C(=O)N2C)O1
  A: 1 | B: 2 | C: -3.0 | D: i
CO[C@H](CN(C)C(=O)c1cnccn1)[C@@H](C)CN([C@H](C)CO)S(=O)(=O)c1ccc(C)cc1
  A: 2 | B: 15 | C: -3.2 | D: i
O=C(c1cccnc1)N1CC(=O)N2[C@H](C1)[C@@H](c1ccc(-c3ccccc3F)cc1)[C@@H]2CO
  A: -1 | B: -4 | C: 0.0 | D: i
Cc1noc(C)c1S(=O)(=O)N(C)C[C@H]1Oc2ccc(NC(=O)Cc3cn(C)c4ccccc34)cc2CC(=O)N([C@@H](C)CO)C[C@@H]1C
  A: -2 | B: 1 | C: -1.0 | D: i
